Screens from PubChem.
KCNQ2 enhance: potentiators of rat KCNQ2 potassium channel; 310,000 compounds, 0.54% hits; AID 2239; B-score at 10 µM; CHO-K1 KCNQ2, FluxOR thallium flux fluorescence; active compounds read high;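 active = fluorescence ratio B-score at least 3 SD of library B-scores, with initial fluorescence B-score within 3 SD, cut at about 5.3 in these data; same plate scores as AID 2156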;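 note: B-score of peak minus minimum over baseline fluorescence ratio after K+ and Tl+ stimulus; positive B-score means potentiation of KCNQ2 with more thallium influx and brighter signal; only the inactives scoring about 0 or higher are listed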
Target sequence (O88943 whole entry, looked up): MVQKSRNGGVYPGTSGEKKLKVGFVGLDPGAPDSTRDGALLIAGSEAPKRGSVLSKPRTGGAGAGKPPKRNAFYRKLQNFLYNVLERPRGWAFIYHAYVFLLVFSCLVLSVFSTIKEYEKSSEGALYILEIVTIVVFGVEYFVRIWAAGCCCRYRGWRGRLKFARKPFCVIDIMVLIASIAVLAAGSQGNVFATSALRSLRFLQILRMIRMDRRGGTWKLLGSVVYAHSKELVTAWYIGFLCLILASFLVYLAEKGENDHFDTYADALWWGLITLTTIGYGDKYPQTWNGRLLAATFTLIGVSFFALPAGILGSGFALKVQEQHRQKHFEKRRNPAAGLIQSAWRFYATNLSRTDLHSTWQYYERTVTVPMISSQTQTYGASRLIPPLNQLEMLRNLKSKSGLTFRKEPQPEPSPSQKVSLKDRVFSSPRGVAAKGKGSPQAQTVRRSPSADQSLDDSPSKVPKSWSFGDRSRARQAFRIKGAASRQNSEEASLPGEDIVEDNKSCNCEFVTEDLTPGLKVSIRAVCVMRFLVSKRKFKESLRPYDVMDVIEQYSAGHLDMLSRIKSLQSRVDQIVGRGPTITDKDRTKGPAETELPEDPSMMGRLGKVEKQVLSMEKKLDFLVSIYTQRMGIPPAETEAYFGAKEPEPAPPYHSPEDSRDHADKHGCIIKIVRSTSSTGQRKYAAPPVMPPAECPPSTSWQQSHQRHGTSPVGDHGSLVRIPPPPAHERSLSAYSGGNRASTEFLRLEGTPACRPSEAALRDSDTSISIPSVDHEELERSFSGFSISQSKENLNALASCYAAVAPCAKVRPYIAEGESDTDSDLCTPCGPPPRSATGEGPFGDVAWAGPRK
KCNQ2 enhance baseline: further read-out of KCNQ2 enhance, marked with its call; B-score; compound at 10 µM; measured here: initial fluorescence intensity artifact check;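 brightness before thallium and not channel activity; 0 = typical well and far values either way flag optical interference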
The depositor's hits bear a star. An excerpt; count on the stated rates, not on these rows.

KCNQ2 enhance | KCNQ2 enhance baseline | molecule
0.19 | 1.04 | CCc1ccccc1NC(=O)c1ccc2snnc2c1
0.74 | 0.15 | O=C(Nc1cnccn1)C1c2ccccc2Oc2ccccc21
1.21 | -0.91 | O=C(O)c1ccccc1-c1ccccc1C(=O)Nc1ccc2c(c1)[nH]c(=O)c1ccccc12
4.15 | 0.64 | CC(Nc1ccc(Cl)cc1)c1cc(Cl)ccc1O (configuration not stated)
0.72 | -0.01 | CCCNCc1cc(Br)ccc1OCC(=O)NCCc1ccccc1
0.03 | 0.51 | CCC1CCCCN1C(=O)COc1cccc2c1CCN(C)C2=O (configuration not stated)
1.35 | -0.61 | Cc1c(OCC(=O)N(C)C)ccc2c(-c3ccccc3)cc(=O)oc12
0.13 | 1.85 | COc1cc(NC(=O)c2cccc(C)c2)c(Cl)cc1[N+](=O)[O-]
0.11 | 0.44 | CCc1ccc(NC(=O)CNC(=O)[C@@H]2Cc3ccccc3CN2)cc1
0.07 | 0.07 | COc1ccc(C(=O)Nc2cc(C)c(NC(=O)c3ccccn3)cn2)cc1
0.98 | 0.3 | COc1ccc(/C(C)=N/NC(=O)CNC(=O)COc2ccccc2)c(OC)c1
0.92 | -0.51 | COc1ccc2nc(Nc3nc(C)c(C(C)=O)s3)sc2c1
0.26 | -0.4 | CCN1C(=NCC(C)C)N[C@@H](c2cccc(C(F)(F)F)c2)C(C(=O)OC)=C1C
0.51 | 0.96 | Cc1cccnc1NC(=O)CCc1nnc2ccc(NCc3ccco3)nn12
0.19 | -1.75 | COc1ccc(C(=O)N(CC2CCCO2)C(C(=O)NC2CCCC2)c2ccc(C)cc2)cc1OC (configuration not stated)
0.53 | -1.49 | Cc1ccc(-c2csc(N(CCCN(C)C)C(=O)c3ccco3)n2)cc1
0.71 | -0.67 | Cc1ccc2cc(CCNC(=O)c3ccco3)c(=O)[nH]c2c1C
0.03 | -1.43 | O=C(Nc1ccc(Oc2ccccc2)cc1)N[C@@H](Cc1ccccc1)C(=O)O
0.66 | -1.55 | Cc1ccccc1C(=O)N1CCN(c2nc(N3CCOCC3)nc(N3CCOCC3)n2)CC1
1.34 | 0.71 | NC(=O)[C@@H]1CCCN1Cc1nc(Cc2cccc(C(F)(F)F)c2)no1
0.16 | -0.81 | O=C(Cn1cc([N+](=O)[O-])cn1)Nc1nc2ccccc2s1
0.15 | -0.01 | COc1cccc(NC(=O)CN(C2=NC3CS(=O)(=O)CC3S2)c2cccc(C)c2)c1 (configuration not stated)
1.58 | 1.39 | c1cncc(-c2nc(NCc3ccco3)c3ccccc3n2)c1
1.34 | -2.12 | NCCCn1cnc2ccccc21
0.08 | -0.02 | CC(CCO)Nc1nc2c([nH]1)c(=O)n(C)c(=O)n2C (configuration not stated)
0.17 | 1.07 | O=C(Nc1nccs1)c1nc(-c2ccccc2)n(-c2ccccc2)n1
1.04 | 0.04 | O=c1oc2cc(O)c(Cl)cc2c2ccccc12
1.51 | -0.66 | CCOCCCNC(=O)c1cn(C)c(=O)c2cc(OC)c(OC)cc12
0.09 | 1.16 | COC(=O)N/C(C)=C1/NC(=O)c2ccccc2C(c2ccccc2)N1 (configuration not stated)
1.13 | 1.08 | CCn1cc(C(=O)NCc2ccc3c(c2)OCO3)c2cc(OC)c(OC)cc2c1=O
1.08 | -0.45 | N/C(=N\NC(=O)c1ccc(Cl)cc1)c1cnccn1
0.83 | -3.34 | Cn1cc(S(=O)(=O)N2CCC(Cc3ccccc3)CC2)c(=O)n(C)c1=O
1.69 | 1.94 | COc1ccc2c3c(c(=O)oc2c1OCC(N)=O)CCCC3
0.3 | 0.74 | COc1ccc(NC(=O)CNC(=O)c2nn(-c3ccc(OC)c(Cl)c3)c(=O)c3ccccc23)c(OC)c1
0.32 | -0.51 | O=C(Nc1cccnc1)c1ccc(Cl)c(S(=O)(=O)N2CCCCC2)c1
0.95 | 1.11 | CCc1nc(SCC(=O)N2CCCC2)c2c(=O)n(C)c(=O)n(C)c2n1
0.04 | -0.89 | CCN(Cc1ccccc1)CC(O)COc1ccccc1 (configuration not stated)
0.62 | 0.71 | Cc1cc(C)cc(NC(=O)COC(=O)c2cc(C)oc2C)c1
0.68 | -0.13 | COc1ccc(CC(=O)NC2CCS(=O)(=O)C2)cc1 (configuration not stated)
1.15 | 0.28 | CN1CCN(c2nc(-c3ccc(Cl)cc3)cc(=O)[nH]2)CC1
0.1 | -2.55 | Cc1no[n+]([O-])c1COc1ccc(/C=C2\NC(=S)NC2=O)cc1
9.73* | -0.02* | O=C(NN1CC(C(=O)OCc2ccc(Br)cc2)CC1=O)c1ccccc1 (configuration not stated)
0.16 | -2.05 | CCOc1ccccc1N(CC)C(=O)Cn1ncc2c(=O)oc3ccccc3c21
0.86 | 0 | O=C(N/N=C/c1ccc(N2CCOCC2)o1)c1cccc([N+](=O)[O-])c1
0.6 | 0.63 | O=C(Nc1ccc(S(=O)(=O)N2CCCCC2c2cccnc2)cc1)c1c(F)cccc1F (configuration not stated)
0.01 | 1.27 | Cn1c(Oc2ccc(F)cc2)c(C=O)c2ccccc21
1.47 | -0.55 | Cc1c(OC(C)C(=O)N2C[C@H]3C[C@@H](C2)c2cccc(=O)n2C3)ccc2c3c(c(=O)oc12)CCC3 (some centres not stated)
2.07 | -0.64 | CCOc1cc(-c2noc(N)c2C#N)cc(OCC)c1OCC
0.01 | -0.24 | O=[N+]([O-])c1ccccc1N/N=C/c1ccccc1
0.41 | -2.7 | O=C(Nc1ccc(Cl)cc1)Nc1nnc(CSCc2ccccc2)s1
1.38 | 1.25 | CCCCN(C)C(=S)Nc1ccc(Oc2ccccc2)cc1
0.11 | 0.07 | CCS(=O)(=O)Nc1cccc(C2=NN(C(=O)c3ccco3)C(c3ccco3)C2)c1 (configuration not stated)
1.81 | -0.34 | COc1ccc(-c2[nH]ncc2CNC(C)CCn2cccn2)cc1F (configuration not stated)
0.38 | 0.32 | CCN=C1SC(C(=O)NCCc2ccccc2)CC(=O)N1CC (configuration not stated)
0.18 | 0.08 | CSc1nsc(SCC(=O)Nc2cccc(NC(C)=O)c2)n1
0.51 | -1.52 | Cc1ccc(NC(=O)c2c([N+](=O)[O-])c(C(C)(C)C)nn2C)c(C)c1
0.1 | 1.32 | Nc1nnc(CC(=O)N/N=C/c2ccc(-c3cccc(C(=O)O)c3)o2)s1
0.85 | -0.08 | CCS(=O)(=O)n1nc(-c2cccnc2)nc1NCc1ccc(F)cc1
1.48 | -1.97 | CCNC(=S)N1CCN(C(=O)C(Cc2ccccc2)NC(C)=O)CC1 (configuration not stated)
0.3 | -0.01 | Cc1[nH]nc2ncc(C(=O)c3cc(Cl)cc(Cl)c3O)cc12

Following part.
KCNQ2 enhance | KCNQ2 enhance baseline | molecule
0.23 | 1.11 | CCCCN(C)CCn1c(=S)[nH]c2ncccc2c1=O
1.37 | 0.9 | CCOC(=O)Cn1nc(C)n(-c2ccc(C(C)(C)C)cc2)c1=O
0.18 | 1.64 | CCn1cc(NC(=O)Nc2ccc(OC)c(OC)c2)c(C(N)=O)n1
0.01 | 0.02 | CC(C)(C)c1ccc(CS(=O)(=O)CC(O)CN2CCCC2=O)cc1 (configuration not stated)
1.14 | -1.19 | Nc1c2c(nc3c1CCC3)CCCC2
1.07 | -0.12 | CN(CC(=O)Nc1ccc(Cl)c(C(F)(F)F)c1)C(=O)C1CCC1
0.32 | 0.39 | CSc1ccc(/C=N/S(=O)(=O)c2ccccc2)cc1
1.62 | 0.11 | COc1ccc(NS(=O)(=O)c2cccc(NC(=O)c3ccccn3)c2)cc1
0.03 | 0.41 | Cc1cc(C(=O)CSc2nncn2C)c(C)n1-c1ccccc1
0.09 | -0.16 | Cn1c(=O)oc2cc(S(=O)(=O)N3CCC(C(=O)N4CCN(c5ccc(F)cc5)CC4)CC3)ccc21
0.74 | -0.25 | CCOc1ccccc1N(CC(=O)NC1CCCCC1)S(C)(=O)=O
2.37 | -0.2 | Cc1ccc(N=Nc2c(O)ccc3n[nH]nc23)cc1
0.16 | -0.12 | O=C1C2C3C=CC(C3=C(c3ccccc3)c3ccccc3)C2C(=O)N1CCO (configuration not stated)
1.27 | 2.25 | CC1Sc2ccc(S(=O)(=O)CCC(=O)N3CCN(c4ccccc4F)CC3)cc2NC1=O (configuration not stated)
1.59 | 1.43 | O=C(O)C(NS(=O)(=O)c1cccc2nsnc12)c1ccccc1 (configuration not stated)

Ordered by value in KCNQ2 enhance (ascending): 6 from the list above.
KCNQ2 enhance | KCNQ2 enhance baseline | molecule
0.16 | -0.12 | O=C1C2C3C=CC(C3=C(c3ccccc3)c3ccccc3)C2C(=O)N1CCO (configuration not stated)
0.23 | 1.11 | CCCCN(C)CCn1c(=S)[nH]c2ncccc2c1=O
1.07 | -0.12 | CN(CC(=O)Nc1ccc(Cl)c(C(F)(F)F)c1)C(=O)C1CCC1
1.27 | 2.25 | CC1Sc2ccc(S(=O)(=O)CCC(=O)N3CCN(c4ccccc4F)CC3)cc2NC1=O (configuration not stated)
1.59 | 1.43 | O=C(O)C(NS(=O)(=O)c1cccc2nsnc12)c1ccccc1 (configuration not stated)
1.62 | 0.11 | COc1ccc(NS(=O)(=O)c2cccc(NC(=O)c3ccccn3)c2)cc1

Back to the main list with the two entries that preceded the break.
KCNQ2 enhance | KCNQ2 enhance baseline | molecule
1.27 | 2.25 | CC1Sc2ccc(S(=O)(=O)CCC(=O)N3CCN(c4ccccc4F)CC3)cc2NC1=O (configuration not stated)
1.59 | 1.43 | O=C(O)C(NS(=O)(=O)c1cccc2nsnc12)c1ccccc1 (configuration not stated)
0.95 | 0.02 | O=C1CCc2ccccc2N1
0.24 | -0.9 | O=C(Nc1cccc(NC(=O)c2ccc(-c3ccc(Br)cc3)o2)c1)c1ccccc1
2.47 | 0.57 | COc1ccc(C2(CNS(=O)(=O)c3ccc(C)cc3)CCOCC2)cc1
1.44 | -0.75 | C/C(=N\NC(=O)CCCNc1ccc(C)cc1)c1ccccn1
0.09 | -0.02 | O=C(NCCSc1ccccc1)c1cccnc1
2.2 | -1.55 | CCc1ccc(CC2S/C(=C(\C#N)C(C)=O)NC2=O)cc1 (configuration not stated)
0.58 | 1.5 | COc1cc(C(=S)N2CCOCC2)ccc1OC(=O)c1cc([N+](=O)[O-])cc([N+](=O)[O-])c1
3.02 | -0.14 | Cc1ccc(Nc2nc(-c3cccs3)cs2)nc1
0.11 | 0.91 | O=C(CCN1CCCCC1)Nn1c(=S)[nH]c2ccccc2c1=O
0.36 | -0.1 | O=S(=O)(NCc1ccco1)c1cnc(Cl)c(Cl)c1
0.08 | -0.92 | O=S(=O)(NC1CCCCC1Sc1ncccn1)c1ccccc1 (configuration not stated)
0.41 | 0 | O=c1sc2ccccc2c(N2CCCC2)c1[N+](=O)[O-]
0.17 | -0.61 | O=C(CNC(=S)N(CCCN1CCOCC1)Cc1cccs1)N1CCCC1
0.01 | 0.04 | COc1ccc(-c2cc(C(F)(F)F)nc(SCC(=O)Nc3cc(C)on3)n2)cc1
1.64 | 1.62 | O=C(NCCCn1ccnc1)C(=O)NCC1OCCN1S(=O)(=O)c1ccc(F)cc1 (configuration not stated)
0.75 | 1.56 | CC1(C)CC(=NOC(=O)c2ccccc2)CC(C)(C)N1O
1.59 | -0.69 | CCOC(=O)c1c(Nc2ccccc2OCCOC)n[nH]c1C
1.72 | 0.57 | COCCn1ccc2c(OCC(=O)NCCc3ccccc3)cccc2c1=O
0.39 | -0.17 | CCc1nnc(NC(=O)CC23CC4CC(CC(C4)C2)C3)s1
1.01 | 2.36 | CCOc1c(OC(C)=O)ccc(/C=C/c2ccc3cccc(OC)c3n2)c1[N+](=O)[O-]
0.71 | -1.75 | Cn1nc([N+](=O)[O-])nc1Sc1nnnn1-c1ccc(C(=O)O)cc1
1.44 | -1.33 | CC1CCCCC1NC(=O)c1nn(C)c2c1CS(=O)(=O)c1ccccc1-2 (configuration not stated)
4.34 | -0.31 | N#Cc1ccc(NC(=O)Nc2ccc(Cl)cc2)cc1
1.03 | 0.53 | O=C(Nc1cccc(-n2cnnn2)c1)c1ccc(Cl)cc1Cl
0.91 | -0.04 | Cc1ccc(NC(=O)COC(=O)C2COc3ccccc3O2)cc1S(=O)(=O)N1CCOCC1 (configuration not stated)
1.84 | -0.33 | CC(/C=C1\SC(=S)N(c2ccc(C(=O)O)cc2)C1=O)=C\c1ccccc1
0.17 | -0.7 | Cc1cc([N+](=O)[O-])ccc1NC(=O)c1cccc(NC(=O)C(C)C)c1
1.3 | -0.08 | Cc1cccc(NC(=O)N2CCC(C(=O)c3ccc(F)cc3)CC2)c1
0.85 | -0.15 | Cn1c(=NC(=O)c2ccccc2[N+](=O)[O-])sc2cc(S(C)(=O)=O)ccc21
0.03 | 0.05 | Cc1ccc(Nc2cc(=O)oc3ccccc23)c(C)c1
0.17 | 1.57 | Cc1ccc(C(=O)NNC(=O)CCCCC(=O)NNC(=O)c2ccc(C)cc2)cc1
0.44 | 0.96 | COc1ccc(CNC(=O)COC(=O)c2ccc(OCc3c(C)noc3C)cc2)cc1OC
0.33 | 1.62 | O=C(Nc1ccccc1N1CCCC1)c1cccnc1Cl
0.03 | 1.18 | Cc1ccc(S(=O)(=O)NC(C(=O)N2CCOCCOCCOCC2)c2ccccc2)cc1 (configuration not stated)
0.01 | 0.87 | COc1ccccc1-c1cc(C(F)(F)F)nc(N2CCN(c3ccccc3)CC2)n1
1.33 | 0.23 | CCCNC(=S)N1CCN(C)CC1
1.82 | 1.04 | COCCNC(=S)Nc1ccccc1[N+](=O)[O-]
0.81 | -1.06 | CCOC(=O)c1c(NC(=O)OC)sc2c1CCC2
0.09 | 0.25 | CCNS(=O)(=O)c1ccc(CCC(=O)Nc2ccc(C(=O)OC)cc2)cc1
1.53 | -3.35 | Cc1ccc2nc3c(cc2c1)c(NC(=O)C(C)(C)C)nn3CC(C)C
